LASV entry inh – blocks Lassa virus binding to or entry into cells. Potency, µM (top dose mostly 37.9 µM), inactives show at the highest dose activity change, negative = inhibition, most hits filed as inhibitors. Lassa virus pseudotype entry inhibition, cell reporter; control for the full effect not named in the record. 300,000 compounds, 1.2% hits; active means well fitted inhibition curve with a large enough effect; inconclusive means small, poorly fitted or top-dose-only effect, or effect the other way; inactive means flat fitted curve, though single readings scatter; tested in HEK293 cells; further: on the % scale 0 is the no-effect control and ±100 the full control effect; nearly all actives have a fitted effect of over 50% in size; luciferase read-out
NS1 inh – influenza NS1 inhibition | Potency, µM (titrated, usually from 46.1 µM), for the others: top-dose activity, positive = more growth | 270,000 compounds, 0.4% hits | S. cerevisiae slowed by influenza A NS1, growth recovery by OD600 | AID 2326; active means well fitted rising curve with a large enough effect; inconclusive means small, poorly fitted or top-dose-only effect; inactive means no such curve, though single readings can be large or run the other way; further: nearly all actives have a fitted effect of over 50% in size
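Recovery from NS1-induced slow growth read by OD600 in budding yeast switched to galactose assay medium (pH 6.0, -URA) at 1:100 dilution. Compound 23 nl per well; the matching strain lacking NS1 serves as control.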
RE007 growth inh – less growth of the S. pombe RE007 Vpr strain; S. pombe RE007 Vpr strain, BacTiter-Glo ATP luminescence, 24 h; control for the full effect not named in the record; AID 651644; Potency, µM (top dose mostly 92.2 µM), without a hit: at the highest dose activity change, negative = less growth; 360,000 compounds, 0.21% hits; active = well fitted falling curve with a large enough effect; inconclusive = small, poorly fitted or top-dose-only effect; inactive = no such curve, though single readings can be large or run the other way;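 further: on the % scale 0 is the no-effect control and ±100 the full control effect; nearly all actives have a fitted effect of over 50% in size; the assay follows cell death caused by Vpr and the record does not say whether a fall means rescue or toxicity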
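Fission yeast RE007 carrying one integrated HIV-1 vpr copy, seeded at OD 0.01 in PMG+AL medium with 23 nL pinned compound. Grown 24 h at 30 degrees; viability read by BacTiter-Glo luminescence after 5 min.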
Cruzain Triton – blocks cruzain activity in presence of Triton detergent; P25779; AID 1478; Potency, µM, for the others: max response, negative = inhibition, usual class: inhibitors; 200,000 compounds, 0.43% hits; purified cruzain, Z-FR-AMC fluorescence, 0.01% Triton;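 further: plate controls were neutral wells for no effect and buffer without enzyme for full effect; nearly all actives have a fitted effect of over 40% in size; top concentration of the series not given in the record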
Target sequence (P25779 123-467 limits assumed): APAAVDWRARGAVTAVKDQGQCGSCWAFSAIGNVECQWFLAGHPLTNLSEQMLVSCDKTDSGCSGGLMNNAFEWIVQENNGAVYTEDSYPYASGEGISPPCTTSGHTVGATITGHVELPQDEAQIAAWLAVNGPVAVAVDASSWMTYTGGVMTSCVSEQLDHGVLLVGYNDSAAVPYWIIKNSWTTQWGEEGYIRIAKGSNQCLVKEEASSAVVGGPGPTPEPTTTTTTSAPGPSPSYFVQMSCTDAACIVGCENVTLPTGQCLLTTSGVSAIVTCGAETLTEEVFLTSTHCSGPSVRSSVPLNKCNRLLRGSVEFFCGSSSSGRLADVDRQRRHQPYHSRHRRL
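Cysteine protease activity tested under reducing, mildly acidic conditions (100 mM sodium acetate pH 5.5, 5 mM DTT) plus 0.01% Triton X-100. Cruzain 1.5 nM; substrate Z-FR-AMC 2 uM; 15 min compound preincubation at room temperature.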
Marburg entry inh – blocks Marburg virus binding to or entry into cells; Marburg virus pseudotyped entry inhibition, cell reporter; control for the full effect not named in the record; about a third of the inactives were read at about 46 µM; Potency, µM (highest dose often 37.8 µM), for the others: top-dose activity change, negative = inhibition, usual class: inhibitors; 300,000 compounds, 1.8% hits; active = well fitted inhibition curve with a large enough effect; inconclusive = small, poorly fitted or top-dose-only effect, or effect the other way; inactive = flat fitted curve, though single readings scatter; tested in HEK293 cells; about a fifth of its hits are not listed in these tables; further: on the % scale 0 is the no-effect control and ±100 the full control effect; luciferase read-out
2A StopGo – FMDV 2A StopGo reporter, luciferase signal | human cells with a luciferase reporter of 2A StopGo recoding; control for the full effect not named in the record | Potency, µM (highest dose often 57.9 µM), for inactives: at the top dose signal change, negative = less light | 410,000 compounds, 1.2% hits | AID 1159524; active = well fitted falling curve with a large enough effect; inconclusive = small, poorly fitted or top-dose-only effect; inactive = no such curve, though single readings can be large or run the other way; tested in HEK293T cells; further: on the % scale 0 is the no-effect control and ±100 the full control effect; nearly all actives have a fitted effect of over 45% in size; luciferase light after 4 h
SARS PLpro yeast – inhibitors of SARS-CoV papain-like protease in yeast; Potency, µM (top dose mostly 32.9 µM), for the others: at the highest dose activity, positive = growth rescue; 330,000 compounds, 0.19% hits; S. cerevisiae expressing SARS-CoV PLpro, growth rescue; control for the full effect not named in the record; active means well fitted rising curve with a large enough effect; inconclusive means small, poorly fitted or top-dose-only effect; inactive means no such curve, though single readings can be large or run the other way; further: 0% is about no effect; nearly all actives have a fitted effect of over 55% in size; growth read by luminescence after 48 h
Cruzain noTriton – inhibitors of Trypanosoma cruzi cruzain without detergent | P25779 | Potency, µM, for the others: max response, negative = inhibition, actives largely listed as inhibitors | purified cruzain, Z-FR-AMC fluorescence, no detergent | 200,000 compounds, 2.3% hits;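 further: plate controls were enzyme without inhibitor for no effect and buffer without enzyme for full effect; nearly all actives have a fitted effect of over 40% in size; top concentration of the series not given in the record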
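Purified cruzain at 1.5 nM, pre-incubated 15 min with compound at room temperature in 100 mM sodium acetate pH 5.5, 5 mM DTT, 0.00005% Triton X-100. Reaction started with 2 uM Z-FR-AMC; AMC fluorescence increase over 60 s gives rate.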
The depositor's hits bear a star; ? = inconclusive; / = no result given; & = joins results of further samples; [ ] = remark or other dose. Unless noted, the call rests on the fitted dose curve; in most records, active means well fitted curve in the direction sought with a large enough effect; inconclusive means small, poorly fitted or top-dose-only effect, or another doubt; inactive means no such curve, though single readings can be large; an effect the other way counts as inactive or inconclusive. Potency means the concentration at half of the fitted maximal effect.

SMILES	LASV entry inh	NS1 inh	RE007 growth inh	Cruzain Triton	Marburg entry inh	2A StopGo	SARS PLpro yeast	Cruzain noTriton
Cc1ccc([N+](=O)[O-])cc1NC(=O)CN(C1CCCCC1)S(=O)(=O)c1ccc(Cl)cc1	-2%	29%	10%	-1.5%	?	-22%	11%	-6%
Cc1ccc(NC(=O)CCC(=O)N/N=C/c2coc3ccc(F)cc3c2=O)cc1	-8%	/	8%	/	2%[46.1 µM]	3%	/	/
COc1ccc(/C=C/C(=O)Nc2ccc(Cl)c(Cl)c2)cc1	6%[46.1 µM]	/	/	-7.0%	/	17%	/	?
CCc1noc(C)c1C(=O)OCC(=O)NC(=O)c1ccccc1	/	-18%	6%	/	/	-14%	-5%	/
O=C(CSc1nnc(-c2ccncc2)n1C1CCCCC1)Nc1ccccc1	-3%	-2%	0%	1.9%	4%	-17%	-3%	11%
O/N=C1\CCSc2ccc(F)cc21	/	7%	-19%	/	/	-13%	0%	/
Fc1ccccc1Cc1nnc2n1N=C(c1ccc(Cl)cc1)CS2	2%	4%	20%	5.9%	?	-13%	10%	?
O=C(NCCCN1CCOCC1)C1CCCN(S(=O)(=O)N2CCCCC2)C1 (centres undefined)	/	-10%	-2%	/	/	2%	0%	/
Cc1cc(C)cc(N2C(=O)NC(=O)/C(=C\C=C\c3ccco3)C2=O)c1	?	9%	36%	-5.3%	?	14µM*	2%	7%
COc1ccc(Cl)cc1S(=O)(=O)NCCCn1ccnc1	0%	18%	-12%	/	16%	81%[activator]	1%	/
Cc1ccc(C)c(OCCCn2c(-c3ccc(Cl)cc3)nc3ccccc3c2=O)c1	10%[46.1 µM]	/	/	-0.4%	2%[46.1 µM]	-24%	/	5%
O=C(c1cccs1)N(Cc1cccc(F)c1)C1CCS(=O)(=O)C1 (centres undefined)	/	0%	2%	/	/	5%	1%	/
Cc1nnc(NC(=O)CSc2nnc(NC(=O)C(C)(C)C)s2)s1	14%	1%	4%	/	-11%	-19%	-1%	/
CCN(CC)CC(=O)Nc1c(C#N)cnn1-c1ccccc1	6%	5%	19%	/	-7%[46.1 µM]	-5%	-2%	/
COc1cc(C(=O)NCCS(=O)(=O)N2CCN(c3ccccc3)CC2)cc(OC)c1OC	-3%[46.1 µM]	/	/	-0.5%	/	-16%	/	1%
O=C(NC(=S)N1CCN(c2ccc([N+](=O)[O-])cc2)CC1)c1ccco1	/	-3%	17%	/	/	-13%	0%	/
COc1ccc(-c2cn3c(n2)sc2cc(C(=O)Nc4cc(Cl)ccc4C)ccc23)cc1	-9%[46.1 µM]	/	/	-6.5%	/	35%[activator]	/	3%
O=C1CSC(=Nc2ccc(Cl)cc2)N1Cc1cccnc1	-1%	-4%	0%	/	-11%[46.1 µM]	-25%	-1%	/
COc1cc2cc(NC(C)=O)cc(NCc3ccccc3)c2cc1OC	28%[46.1 µM]	?	0%	/	0%[46.1 µM]	10%	2%	/
CC(C)c1cc(C(=O)N/N=C/c2cccnc2)n[nH]1	10%	-4%	-2%	-2.4%	25%	38%[activator]	-3%	4%
CSc1ccccc1C(=O)N1CCC(n2nccc2NC(=O)C(C)(C)C)CC1	0%	14%	0%	/	18%	-18%	-4%	/
Cc1ccc(-c2cc(C(F)(F)F)n3nc(C(=O)N4CCN5CCCC5C4)cc3n2)cc1 (centres undefined)	1%[46.1 µM]	-1%	-8%	/	?	-2%	-18%	/
CCOCCCNC(=O)CN1C(=O)c2cccc3cccc1c23	/	21%	0%	/	/	-8%	7%	/
O=C(NC(=S)Nc1cccc2c(O)cccc12)c1cccc(Br)c1	4%[46.1 µM]	-43%	-20%	/	-17%[46.1 µM]	-2%	-6%	/
O=C(O)CC(CC(=O)Nc1ccc(F)c(Cl)c1)c1ccc(Cl)cc1Cl (centres undefined)	8%	6%	3%	/	9%	-15%	1%	/
CCC1CCCCN1CCCNC(=O)CSc1nc2nc(C)c(Cc3ccc(C)cc3)c(C)n2n1 (centres undefined)	?	11%	0%	/	11µM*	-9%	-3%	/
CC(=O)c1ccc(S(=O)(=O)Nc2c(C)nn(C)c2C)cc1	11%	/	4%	/	-1%[46.1 µM]	-29%	4%	/
Cc1coc2cc3oc(=O)c(CCC(=O)NCCCN4CCOCC4)c(C)c3cc12	/	10%	-15%	/	/	-11%	?	/
CCn1cc(/C=C(\NC(=O)c2ccccc2F)C(=O)NCCCn2ccnc2)c2ccccc21	/	-1%	2%	/	/	24%	4%	/
Cc1ccc(OCCSc2nc3ccc(NC(=O)COc4ccc(F)cc4)cc3s2)cc1	17%[46.1 µM]	/	/	-3.0%	?	-22%	/	-6%
Cc1ccc(OCCCCNC2CCCC(C)C2C)c(C)c1 (centres undefined)	?	-3%	-7%	/	11µM*	-17%	0%	/
CC(=O)N1CCN(c2ccc(Oc3ncnc4sccc34)cc2)CC1	8%	-23%	20%	5.6%	2%	?	7%	11%
Cc1ccc(C(=O)NCC(=O)NCC(=O)OCC(=O)c2ccc(Br)cc2)cc1	-16%	-7%	2%	-1.7%	8%	-2%	7%	-30%
CN1CCN(c2nc3ccccn3c(=O)c2/C=C(\C#N)S(=O)(=O)c2ccc(Cl)cc2)CC1	-3%[46.1 µM]	2%	-6%	/	1%[46.1 µM]	8%	0%	/
CC1CN(Cc2cc(=O)[nH]c(C(C)C)n2)CC(C)O1 (centres undefined)	1%	3%	-9%	-0.3%	17%	17%	-1%	2%
COc1cc(/C=N/NC(=O)c2ccncc2)ccc1OC(=O)c1ccco1	10%[46.1 µM]	4%	-9%	/	-1%[46.1 µM]	-7%	-1%	/
O=C(CSc1n[nH]c(-c2ccccc2Cl)n1)NCCc1ccccc1	-20%[46.1 µM]	/	/	3.5%	/	-10%	/	17%
CC1=NCCN1S(=O)(=O)c1cc(Cl)ccc1Cl	-3%	-11%	9%	2.9%	6%	0%	3%	-2%
CCOCc1cnc(C)nc1NCC(=O)c1c(C)[nH]c2ccc(OC)cc12	22%	9%	115%	2.5%	-6%	/	-2%	6%
COc1ccc(S(=O)(=O)N2CCCCC2)cc1NC(=O)c1ccc(Cl)nc1	-3%	/	13%	/	10%	0%	-2%	/
C=CCn1c(C(O)c2ccccc2)nc2ccccc21 (centres undefined)	4%	-4%	9%	/	7%	12%	?	/
CC(=O)c1cccc(NC(=S)NNC(=O)c2ccco2)c1	/	6%	-12%	/	/	16%	-1%	/
O=C(NCc1ccncc1)C(=O)NCC(c1ccco1)N1CCN(c2ccc(F)cc2)CC1 (centres undefined)	-3%	-5%	4%	-0.3%	5%	?	/	15%
CC(C)(C)C(=O)N1CCN(c2ccc([N+](=O)[O-])c(NCC3CCCO3)c2)CC1 (centres undefined)	?	-30%	2%	-9.2%	?	/	-6%	5%
CCOC(=O)CC(=O)CSc1ncnc2c1cnn2-c1ccccc1	-11%	1%	-28%	-2.2%	-14%	28%	-23%	9%
COc1ccc(S(=O)(=O)Nc2cccc(-c3ccc4nncn4n3)c2)c(OC)c1	-8%	/	0%	/	?	26%	-12%	/
CCN1C(=O)C(CC(=O)Nc2ccc(OC)cc2)N(CCc2ccc(F)cc2)C1=S (centres undefined)	?	2%	10%	/	?	-20%	3%	/
CN1CCN(c2ccccc2NC(=O)c2sc3ccccc3c2Cl)CC1	?	/	-12%	/	/	-22%	0%	/
CCN(CC)CCCNC(=S)N1CCC(c2nc3ccccc3[nH]2)CC1	/	8%	-1%	/	/	0%	2%	/
COc1ccc(-c2nn3c(-c4ccc(C)cc4)nnc3c3ccccc23)cc1	23%[46.1 µM]	/	/	0.3%	-9%[46.1 µM]	-12%	/	4%
Cc1ccc2oc(=O)cc(CN3CCOCC3)c2c1	-9%	3%	14%	3.7%	-4%	0%	2%	-1%
CC(=O)c1cccc(NC(=O)C2C3C=CC(C3)C2C(=O)O)c1 (centres undefined)	/	7%	0%	/	/	-2%	0%	/
Cc1ccc(C(=O)c2cc3ccccc3o2)cc1	?	-45%	?	-8.5%	-18%	61%[activator]	-3%	-22%
O=C(CN(C(=O)CSc1nnc(COc2ccccc2)o1)c1ccc(F)cc1)NC1CCCC1	?	-30%	-11%	1.8%	5%&-7%	-8%	-3%	25%
CCOc1ccc(N(CC(=O)NCCc2ccc(Cl)cc2)S(=O)(=O)c2c(C)[nH]c(=O)[nH]c2=O)cc1	-1%[46.1 µM]	/	1%	/	-2%[46.1 µM]	-16%	-2%	/
O=C(c1ccco1)N1CCCN(Cc2nc(-c3ccc4c(c3)OCO4)no2)CC1	-24%	-2%	-13%	/	-3%[46.1 µM]	?	-1%	/
Cc1ccc(N2CCN(C(=O)c3noc4c3COc3ccc(C)cc3-4)CC2)c(C)c1	30%[46.1 µM]	/	/	0.3%	/	-17%	/	3%
COc1ccc(CCN(Cc2ccccn2)C(=S)Nc2ccccc2C)cc1OC	12%[46.1 µM]	16%	-14%	/	-28%[46.1 µM]	-9%	3%	/
Cc1cccc(-c2nc3c(c(SCc4ccccc4Cl)n2)Cc2c(CO)cnc(C)c2O3)c1	-2%[46.1 µM]	/	/	-1.5%	/	-4%	/	20%
O=c1o[nH]c(-c2ccccc2)c1N=Nc1c(F)cccc1Cl	/	-6%	-1%	/	/	?	-1%	/

Remaining list, next part:
SMILES	LASV entry inh	NS1 inh	RE007 growth inh	Cruzain Triton	Marburg entry inh	2A StopGo	SARS PLpro yeast	Cruzain noTriton
N#Cc1ccccc1OCC(=O)Nc1ccc2c(c1)OCCCO2	-27%	-1%	12%	/	-19%[46.1 µM]	11%	-17%	/
COC(=O)CCC(=O)c1oc2ccccc2c1N	18%	-6%	-11%	-4.6%	7%	74%[activator]	-2%	1%
COCCNC(=O)CCc1c(C)nc2c(-c3ccc(F)cc3)c(C)nn2c1C	-13%[46.1 µM]	-3%	-3%	1.4%&2.5%	14%[46.1 µM]	0%&-13%	-1%	?
COCCNc1nnc(SCC(=O)NC(=O)c2ccccc2OC)s1	6%	8%	-20%	/	-7%	-16%	?	/
C=CCN1C(=O)NC(=O)/C(=C/c2ccc(N(C)C)c(Br)c2)C1=O	7.9µM*	6%	5%	/	-5%[46.1 µM]	-20%	0%	/

Assay outcomes deposited in PubChem BioAssay by National Center for Advancing Translational Sciences (NCATS).
